ID4 binder = binders of human ID4 protein, primary screen, biochemical, small molecule microarray, single point | calls only | actives 1.2% (n = 31,000) | DNA-binding protein inhibitor ID-4 (Homo sapiens), P47928 | Flag-ID4 binding, fluorescence F/B;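 active means spot signal over background at p below 0.07 in all four prints; compounds were printed on slides so no solution concentration is given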;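 further: a binder raises fluorescence above local background on the spot; about 2 pmol printed per array spot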
Target sequence (P47928 whole entry, looked up): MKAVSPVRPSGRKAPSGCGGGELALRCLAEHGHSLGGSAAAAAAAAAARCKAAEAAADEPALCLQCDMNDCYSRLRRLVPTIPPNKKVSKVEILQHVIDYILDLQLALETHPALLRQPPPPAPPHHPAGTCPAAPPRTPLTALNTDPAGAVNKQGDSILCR
Calls only; i = inactive. A portion of the library (hit frequency here may not be typical).

C[C@H](CO)N1C[C@H](C)[C@@H](CN(C)C)Oc2cc(C3=CCCC3)ccc2S1(=O)=O
- ID4 binder: i

CCCC#Cc1cnc2c(c1)C(=O)N([C@@H](C)CO)C[C@H](C)[C@@H](CN(C)C(=O)c1cccc(F)c1)O2
- ID4 binder: i

O=C(O)/C=C/CCCCCCCC(=O)O
- ID4 binder: i

COc1ccc(-c2oc(NC(=O)Cc3ccc(OC)c(OC)c3)c(C#N)c2-c2ccc(OC)cc2)cc1
- ID4 binder: i

COCCOC(=O)N1C(=O)[C@@]2(c3cc(C#CCC(C(=O)OC)C(=O)OC)ccc31)[C@H](C(=O)N1CCc3cc(OC)c(OC)cc3C1)[C@H]1C(=O)O[C@H](c3ccccc3)[C@H](c3ccccc3)N1[C@@H]2c1ccccc1OCCO
- ID4 binder: i

NC(=O)c1c(NC(=O)COc2ccc3ccccc3c2)sc2c1CCCCCC2
- ID4 binder: i

NNc1nncc2ccccc12
- ID4 binder: i

CC(=O)N(C)C[C@H]1Oc2ncc(-c3ccc(C)cc3)cc2C(=O)N([C@H](C)CO)C[C@@H]1C
- ID4 binder: i

C[C@H]1CN([C@@H](C)CO)C(=O)c2cccc(NC(=O)C3CC3)c2O[C@H]1CN(C)CC1CCCCC1
- ID4 binder: i

Cc1ccnc(NS(=O)(=O)c2ccc(NC(=O)c3ccc(Cl)cc3Cl)cc2)n1
- ID4 binder: i

Random excerpt: 3 records from the list
COc1ccc(-c2oc(NC(=O)Cc3ccc(OC)c(OC)c3)c(C#N)c2-c2ccc(OC)cc2)cc1
- ID4 binder: i

C[C@H]1CN([C@@H](C)CO)C(=O)c2cccc(NC(=O)C3CC3)c2O[C@H]1CN(C)CC1CCCCC1
- ID4 binder: i

NC(=O)c1c(NC(=O)COc2ccc3ccccc3c2)sc2c1CCCCCC2
- ID4 binder: i

(list continues)
CS(=O)(=O)N(CC(=O)Nc1ccc(Cl)c(C(F)(F)F)c1)c1cccc(C(F)(F)F)c1
- ID4 binder: i

CCCC#Cc1cnc2c(c1)C(=O)N([C@@H](C)CO)C[C@H](C)[C@@H](CN(C)Cc1cccnc1)O2
- ID4 binder: i

CN1C(=O)N(C)C(=O)C(CCc2ccncc2)(C2(C#N)CCCCC2)C1=O
- ID4 binder: i

O=C(O)C12CC3CC(C1)CC(n1ncc(NCc4ccc(F)cc4)c(Cl)c1=O)(C3)C2
- ID4 binder: i

COC(=O)c1ccccc1NC(=O)c1cccc(NC(=O)COc2cc(C)c(Cl)c(C)c2)c1C
- ID4 binder: i

Cn1c(SCC(=O)Nc2ccc(Br)cc2Cl)nnc1-c1cccc([N+](=O)[O-])c1
- ID4 binder: i

C[C@H](CO)N1C[C@H](C)[C@H](CN(C)C(=O)c2ccc(F)cc2)Oc2ncc(C#CCN(C)C)cc2C1=O
- ID4 binder: i

CSC(N)=Nc1csc(C(F)(F)F)c1-c1ccccc1
- ID4 binder: i

C[C@@H]1CN([C@H](C)CO)C(=O)c2cc(C#Cc3ccncc3)cnc2O[C@H]1CN(C)CC1CCOCC1
- ID4 binder: i

COc1cc(NC(=O)C(C)Oc2ccc(Cl)cc2Cl)c(C(=O)O)cc1OC (centres undefined)
- ID4 binder: i

CCCN(C)C[C@H]1Oc2cc(C#Cc3cccc(F)c3)ccc2S(=O)(=O)N([C@H](C)CO)C[C@H]1C
- ID4 binder: i

C[C@@H]1CN([C@H](C)CO)S(=O)(=O)c2ccc(C3=CCCC3)cc2O[C@@H]1CN(C)Cc1cccc(C(=O)O)c1
- ID4 binder: i

C/C=C/c1cnc2c(c1)C(=O)N([C@@H](C)CO)C[C@H](C)[C@@H](CN(C)Cc1ccncc1)O2
- ID4 binder: i

COc1cccc(S(=O)(=O)N(C)C[C@H]2OCc3ccccc3-c3c(n(C)c4ccccc34)C(=O)N([C@@H](C)CO)C[C@H]2C)c1
- ID4 binder: i

C[C@H](CO)N1C[C@H](C)[C@@H](CN(C)Cc2ccccn2)Oc2ncc(Br)cc2C1=O
- ID4 binder: i

C[C@@H](NC(=O)C[C@@H]1CC[C@@H](NC(=O)C2CCC2)[C@H](CO)O1)c1ccccc1
- ID4 binder: i

CN(CCC#N)CC(=O)Nc1ccccc1[N+](=O)[O-]
- ID4 binder: i

CCOc1ccc2[nH]c(C)c(CCC(C)=O)c(=O)c2c1
- ID4 binder: i

C[C@@H](NC(=O)C[C@@H]1CC[C@H](NC(=O)c2cccnc2)[C@H](CO)O1)c1ccccc1
- ID4 binder: i

C[C@@H]1CN([C@H](C)CO)C(=O)c2cc(Br)cnc2O[C@@H]1CN(C)CC1CCCC1
- ID4 binder: i

CCOc1ccccc1NC(=O)C1C(C(=O)O)C2C=CC1C21CC1 (centres undefined)
- ID4 binder: i

Cc1cccc(NC(=O)CCCC(=O)O)c1C
- ID4 binder: i

Cc1nnc(SCC(=O)Nc2ccc(N3CCOCC3)cc2)o1
- ID4 binder: i

Cc1ccc(OCC(=O)Nc2cccc(C(=O)O)c2)c(Br)c1
- ID4 binder: i

CCOc1ccc(Cl)cc1S(=O)(=O)n1nnc2ccccc21
- ID4 binder: i

Cc1ccc(OC(=O)N(C)C[C@H]2OCc3ccccc3-c3ccccc3C(=O)N([C@H](C)CO)C[C@@H]2C)cc1
- ID4 binder: i

C[C@@H]1CN([C@@H](C)CO)C(=O)c2ccccc2-c2ccccc2CO[C@@H]1CN(C)Cc1ccncc1
- ID4 binder: i

C[C@H]1CN([C@@H](C)CO)C(=O)c2cc(-c3ccc(F)cc3)cnc2O[C@H]1CN(C)Cc1ccccn1
- ID4 binder: i

COC(=O)C1=C(C)NC(=S)NC1c1cccc(OC)c1OCc1ccccc1 (centres undefined)
- ID4 binder: i

COc1ccc(OC(C)c2nc(-c3cccnc3)no2)cc1 (centres undefined)
- ID4 binder: i

C[C@H](NC(=O)C[C@@H]1CC[C@@H](NC(=O)C2CCC2)[C@H](CO)O1)c1ccccc1
- ID4 binder: i

O=C1O[C@@H](c2ccccc2)[C@@H](c2ccccc2)N2[C@@H](c3ccccc3OCCO)[C@]3(C(=O)Nc4ccc(C#CC5(O)CCCCCC5)cc43)[C@@H](C(=O)O)[C@H]12
- ID4 binder: i

Cn1c(=O)c2c(nc(OCc3cccnc3)n2Cc2c(F)cccc2Cl)n(C)c1=O
- ID4 binder: i

CC(=O)Nc1ccc(-c2nnc(SCC(=O)NC3CCCCC3)n2C)cc1
- ID4 binder: i

CCc1ccc(OCC(=O)Nc2ccccc2C(=O)OC)c(Br)c1
- ID4 binder: i

O=C(NCC[C@@H]1CC[C@H](NC(=O)C2CCCC2)[C@H](CO)O1)c1cc(Cl)cc(Cl)c1
- ID4 binder: i

Cc1ccc(-c2cc(C(F)(F)F)nn2-c2ccc(S(N)(=O)=O)cc2)cc1
- ID4 binder: i

CCCC#Cc1ccc2c(c1)O[C@H](CN(C)C(=O)c1cnccn1)[C@@H](C)CN([C@@H](C)CO)S2(=O)=O
- ID4 binder: i

Cc1cc(C)c(-c2csc(Cc3nc(-c4cc5ccccc5oc4=O)cs3)n2)cc1C
- ID4 binder: i

C=CCn1c(SCc2nc3ccccc3c(=O)[nH]2)nnc1-c1cc2cc(Cl)ccc2o1
- ID4 binder: i

C[C@H](CO)N1C[C@H](C)[C@H](CN(C)CC2CCCCC2)Oc2ccc(NC(=O)C3CC3)cc2C1=O
- ID4 binder: i

COC(=O)c1cccc(NC(=O)CN(c2ccc(F)cc2)S(C)(=O)=O)c1C
- ID4 binder: i

C/C=C/c1ccc2c(c1)O[C@H](CN(C)C(=O)c1cnccn1)[C@@H](C)CN([C@@H](C)CO)S2(=O)=O
- ID4 binder: i

C/C(=C\CCC(C)C1CC(O)C2(C)C3CCC4C(C)(C)C(OC5OCC(O)C(O)C5O)CCC45CC35CC(O)C12C)C(=O)O (centres undefined)
- ID4 binder: i

O=C(C[C@@H]1C[C@@H]2c3cc(NC(=O)Nc4ccccc4F)ccc3O[C@@H]2[C@@H](CO)O1)NCc1ccccn1
- ID4 binder: i

COc1cc(C(=O)NCc2ccccn2)c([N+](=O)[O-])cc1OC
- ID4 binder: i

C[C@H]1CN([C@@H](C)CO)S(=O)(=O)c2ccc(-c3ccc(C(=O)N(C)C)cc3)cc2O[C@H]1CN(C)C
- ID4 binder: i

C[C@@H]1CN([C@@H](C)CO)C(=O)c2cc(Br)cnc2O[C@H]1CN(C)CC1CCOCC1
- ID4 binder: i

Cc1ccc(NC(=O)c2ccco2)c(NC(=O)CCN2C(=O)c3ccccc3C2=O)c1
- ID4 binder: i

CS(=O)(=O)N(CC(=O)Nc1ccccc1C(=O)N1CCOCC1)c1ccc(I)cc1
- ID4 binder: i

O=C(C[C@@H]1CC[C@@H](NC(=O)CC2CC2)[C@@H](CO)O1)NCC(F)(F)F
- ID4 binder: i

COc1ccc(OCC(=O)Nc2ccc3nn(-c4ccc(Cl)cc4)nc3c2)cc1
- ID4 binder: i

O=C(C[C@@H]1CC[C@H](NC(=O)C2CCC2)[C@H](CO)O1)NC1CCCCC1
- ID4 binder: i

COc1cc2nc(N3CCN(C(=O)c4ccco4)CC3)nc(N)c2cc1OC
- ID4 binder: i

CC(=O)N(C)C[C@H]1Oc2ncc(C#Cc3ccccc3)cc2C(=O)N([C@@H](C)CO)C[C@@H]1C
- ID4 binder: i

CCN(CC)CCSc1nnc2c3ccccc3n(CC)c2n1
- ID4 binder: i

Cc1ccc(C(=O)NC(=S)NCc2ccco2)cc1[N+](=O)[O-]
- ID4 binder: i

CCOc1ccc(NC(=O)CSc2nc3sc(C)c(C)c3c(=O)n2-c2ccc(C)cc2)cc1
- ID4 binder: i

C[C@H](CO)N1C[C@H](C)[C@H](CN(C)C(=O)Nc2ccccc2)Oc2ccc(N(C)C)cc2C1=O
- ID4 binder: i

CC(C)C#Cc1ccc2c(c1)O[C@@H](CN(C)CC1CCOCC1)[C@@H](C)CN([C@H](C)CO)S2(=O)=O
- ID4 binder: i

In a second layout: results already given
| canonical_smiles | ID4 binder |
| --- | --- |
| CCN(CC)CCSc1nnc2c3ccccc3n(CC)c2n1 | i |
| Cc1ccc(C(=O)NC(=S)NCc2ccco2)cc1[N+](=O)[O-] | i |

Additional results
Cc1ccc2c(C)nc(NC3=NC(C(=O)Nc4ccc(Cl)c(Cl)c4)CC(=O)N3)nc2c1 (centres undefined)
- ID4 binder: i

CN(C)c1ccc2c(c1)[C@H]1C[C@H](CC(=O)N3CCc4ccccc4C3)O[C@@H](CO)[C@H]1O2
- ID4 binder: i

COC(=O)c1cc(NC(=O)CN2C(=O)c3cccc4cccc2c34)ccc1Cl
- ID4 binder: i

N#Cc1c(NC(=O)Cn2cnc3ccccc3c2=O)sc2c1CCC2
- ID4 binder: i

CCc1ccccc1N(CC(=O)O)S(C)(=O)=O
- ID4 binder: i

COc1ccc(N(C(=O)c2ccccc2)S(=O)(=O)c2cc(OC)ccc2OC)cc1
- ID4 binder: i

CC(=O)N(C)C[C@H]1Oc2ncc(C#Cc3ccc(F)cc3)cc2C(=O)N([C@H](C)CO)C[C@@H]1C
- ID4 binder: i

COc1ccc(-n2c(SCC(=O)Nc3ccc(C)cc3)nc3sc4c(c3c2=O)CCCC4)cc1
- ID4 binder: i

COc1ccccc1CN1C(=O)c2ccccc2[C@@]2(Cc3ccccc3N(C(C)C)C2=O)[C@@H]1c1ccc(CO)cc1
- ID4 binder: i

C=C(C)C(=O)O[C@H]1CC(=C)C2C[C@H](O)[C@](O)(CO)C2[C@H]2OC(=O)C(=C)[C@H]12 (some centres undefined)
- ID4 binder: i

Cc1ccc(-n2c(SCC(=O)N3CCOCC3)nnc2-c2ccncc2)cc1
- ID4 binder: i

Cc1cc(C)c2nc(-c3cccnc3)cc(C(=O)NC(C)c3cnn(C)c3C)c2c1 (centres undefined)
- ID4 binder: i

COC(=O)c1ccc(Cl)c(NC(=O)CN2CCN(Cc3ccccc3)CC2)c1
- ID4 binder: i

O=c1c2ccccc2cnn1Cc1n[nH]c(=S)n1-c1ccc(F)c(Cl)c1
- ID4 binder: i

O=C(c1ccccc1NS(=O)(=O)c1cccc([N+](=O)[O-])c1)N1CCOCC1
- ID4 binder: i

COc1ccccc1C#Cc1ccc2c(c1)O[C@H](CN(C)C)[C@H](C)CN([C@@H](C)CO)S2(=O)=O
- ID4 binder: i

Cc1ccccc1-c1cnc2c(c1)C(=O)N([C@@H](C)CO)C[C@H](C)[C@@H](CN(C)Cc1ccncc1)O2
- ID4 binder: i

COCC#Cc1cnc2c(c1)C(=O)N([C@H](C)CO)C[C@H](C)[C@@H](CN(C)C(=O)CCN1CCCCC1)O2
- ID4 binder: i

C[C@H](CO)N1C[C@H](C)[C@H](CN(C)C(=O)C2CC2)Oc2ncc(C#CCc3ccccc3)cc2C1=O
- ID4 binder: i

O=C(CC1(O)C(=O)N(Cc2ccc(Cl)cc2)c2ccc(Cl)cc21)c1ccco1 (centres undefined)
- ID4 binder: i

Cc1ccc2nc(-c3cccnc3)cc(C(=O)NCc3cnn(C)c3)c2c1
- ID4 binder: i

C[C@@H]1CN([C@@H](C)CO)S(=O)(=O)c2ccc(C#Cc3ccccc3F)cc2O[C@H]1CN(C)C(=O)Cc1cccnc1
- ID4 binder: i

CCn1c(SCC(=O)Nc2ccc(C)cc2)nnc1-c1ccc(N)cc1
- ID4 binder: i

CCOC(=O)c1c(-c2ccc(C)cc2)csc1NC(=O)C1COc2ccccc2O1 (centres undefined)
- ID4 binder: i

Cc1sc2ncnc(SCC(=O)c3cc(Cl)sc3Cl)c2c1C
- ID4 binder: i

CO[C@H](CN(C)Cc1cc(F)ccc1F)[C@H](C)CN(C(=O)Nc1ccc(C(F)(F)F)cc1)[C@@H](C)CO
- ID4 binder: i

O=C(CN1CCCCC1)Nc1sc2c(c1C(=O)Nc1ccc(Br)cc1)CCC2
- ID4 binder: i

O=C(Nc1sc2c(c1C(=O)NCc1ccco1)CCCC2)c1ccc([N+](=O)[O-])cc1
- ID4 binder: i

C[C@H]1CN([C@@H](C)CO)C(=O)c2cc(C#CC3CCCCC3)cnc2O[C@@H]1CN(C)Cc1cncnc1
- ID4 binder: i

O=C(NCCSc1c(-c2ccc(Br)cc2)[nH]c2ccccc12)c1ccncc1
- ID4 binder: i

COc1cccc(NC(=O)N(C)C[C@H]2OCc3ccccc3-c3ccccc3C(=O)N([C@H](C)CO)C[C@H]2C)c1
- ID4 binder: i

CCCC#Cc1cnc2c(c1)C(=O)N([C@@H](C)CO)C[C@@H](C)[C@H](CN(C)C(=O)c1cccc(F)c1)O2
- ID4 binder: i

CCC1(CC)Cc2ccccc2C(CC(=O)N2CCOCC2)=N1
- ID4 binder: i
